# Screening results (PubChem BioAssay)
# PrP UTR inh = suppresses PrP 5' UTR mRNA reporter expression | inhibition, % (concentration not given with the values) | actives 0.35% (n = 340,000) | cell-based PrP 5' UTR mRNA reporter, plate reader;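 active = every replicate at 50% or more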;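 also: 0 = median of the neutral control wells; tested in H4 reporter cells; numbers are from one replicate; inactives centre near -14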
# ugtP null kill = compounds lethal to S. aureus RN4220 ugtP deletion mutant | OD600 growth, 16 h; some inactives read as strong as hits | growth inhibition, % (concentration not given with the values) | actives 0.54% (n = 330,000);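 active = z-score under -3 and OD600 up to 0.15 on both plates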;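 also: plate controls were untreated wells for no effect and antibiotic for full effect; wells of about 80 µL received 100 nL stock; the first replicate is given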
# RN4220 kill = kills Staphylococcus aureus RN4220; S. aureus RN4220 growth, OD600, 16 h; inhibition, % (no concentration beside the values); actives 0.33% (n = 330,000); AID 1259311;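 active = z-score of -3 or lower and OD600 up to 0.18 on both plates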;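 also: plate controls were untreated cells for no effect and reference antibiotic for full effect; stock transfer was 100 nL into about 80 µL; one replicate is shown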
# Bead autofluor = counter-screen for toxin protease inhibitors: compound fluorescence; compound autofluorescence counterscreen, microsphere flow cytometry; stronger effect = higher value; fluorescence intensity (no concentration beside the values); actives 3.1% (n = 360,000);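 active = at least 3 SD above the mean of all compounds, about 16000 in these data; inconclusive = too few beads counted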;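 also: 100 nL of 1 mM stock went into each well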
# Mtb hypoxia rep = inhibitors of hypoxia-regulated fluorescent reporter in Mycobacterium tuberculosis. M. tuberculosis hypoxia-regulated fluorescent reporter, fluorescence. fluorescence inhibition, % (concentration not given with the values). actives 0.1% (n = 300,000). AID 1159583;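 active = 35 to 45% if threefold the growth effect, above 45% if 1.5-fold the growth effect; inactive = the rest, general growth blockers included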;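 also: wells of about 50 µL received 100 nL stock; 0% = vehicle wells and 100% = reference inhibitor wells; whole bacteria with a GFP reporter of the hypoxia response; strong numbers were not always called active; many hits fall short of the cut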
# BJeLR lethal = BJeLR cell viability loss | BJeLR (HRASV12) viability, CellTiter-Glo ATP luminescence, 48 h; reference of the scale not given here | inhibition, % (no concentration beside the values) | actives 0.17% (n = 300,000);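 active = replicate mean above 50%; inconclusive = above 50% but judged a plate artefact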;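 also: 50 nL library stock added to about 25 µL; numbers are from one replicate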
# Mtb hypoxia rep growth = recorded beside Mtb hypoxia rep, whose call it bears; growth inhibition, %; measured here: M. tuberculosis growth (absorbance);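 0% = vehicle and 100% = reference antibiotic; read after six days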
# * = called active by the depositor; ? = inconclusive; nt = not tested or not shown. Rows were taken by chance; overall some 4% were active at least once.
Structure	PrP UTR inh	ugtP null kill	RN4220 kill	Bead autofluor	Mtb hypoxia rep	Mtb hypoxia rep growth	BJeLR lethal
CC(C)c1cccc(C(C)C)c1OC(=O)C1OC(C(C)(C)C)=CC1c1ccccc1 (configuration not stated)	nt	11	-3.0	nt	11	5	nt
COc1ccc(-c2cc(C(=O)N3CCOCC3)no2)cc1OC	-31	11	3.0	8126	6	-6	15
CC(C)CCNC(=O)c1ccc2c(c1)ncn2C1CCCC1	-9	15	0.9	3320	9	2	34
O=C(c1cn(Cc2ccccc2F)c2ncccc12)C(F)(F)F	-24	11	-4.1	3086	6	11	6
COc1ccccc1/C=C1/C(=O)N(c2ccccc2)N=C1C	-11	nt	nt	3849	nt	nt	-4
CCCCN(CC)CCNC(=O)c1cn(CCOC)c(=O)c2c1c1ccccc1n2C	-5	2	1.8	3802	5	-3	-2
Cc1cccc(OCCn2c(=S)[nH]c3ccccc32)c1	-19	-13	9.1	2861	17	3	-4
CCOC(=O)CSc1nc2c(c(=O)[nH]1)C(C)(CC)Cc1ccccc1-2 (configuration not stated)	-16	42	10	3153	14	8	-1
Cc1cccc(OCC(=O)N/N=C/CC(C)c2ccccc2)c1C (configuration not stated)	-9	nt	nt	2074	nt	nt	-2
COC(=O)c1cccc(Oc2nc3c(c(=O)n(C)c(=O)n3C)n2C(C)C)c1	-5	-2	2.4	4147	1	7	12
O=C1CN(CC(=O)Nc2ccc(SC(F)F)cc2)CCN1	-7	6	-0.5	2726	9	-4	2
O=C(NN=Cc1cc(Br)ccc1O)c1ccncc1	nt	6	-7.3	nt	14	0	nt

Structure	PrP UTR inh	ugtP null kill	RN4220 kill	Bead autofluor	Mtb hypoxia rep	Mtb hypoxia rep growth	BJeLR lethal
CCOP(=O)(OCC)C(NC(=O)Nc1cccc(Cl)c1)C(N)=O (configuration not stated)	21	1	9.1	1968	-2	-2	-9
COC(=O)CN(c1ccc(OC)cc1)S(=O)(=O)c1c(C)noc1C	-1	3	3.5	2459	nt	nt	-4
O=C1CSC2(CCCCC2)N1CCO	-4	0	1.1	5576	-15	-3	2
COc1cccc(NC(=O)CSc2nnc(-c3ccoc3C)n2-c2ccccc2)c1	nt	10	2.4	nt	8	1	-4
C=C(C)COc1ccc2c(CC)cc(=O)oc2c1	-25	6	9.0	2248	9	0	-1
COc1ccc2nc(N3CCN(C(=O)C4COc5ccccc5O4)CC3)sc2c1 (configuration not stated)	-70	11	2.0	4130	9	-4	18
COC(=O)c1ccc(NC2=CC(=O)CC(C)(C)C2)cc1	-27	3	0.2	4087	16	10	1
COc1ccc(/C=N/N=C/c2ccc(OC)cc2)cc1	-30	nt	nt	3915	nt	nt	5
Cc1ccc(S(=O)(=O)N2CCN(Cc3ccccc3)CC2)s1	-8	4	-1.5	?	7	5	nt
CCOc1cc(CNCc2ccccc2)ccc1OCc1ccc(Cl)cc1	-11	-10	-1.8	4004	5	16	3
COC(=O)C1=C(c2c(C)noc2C)CC2CCC1N2C(=O)N1CCC(O)CC1 (configuration not stated)	nt	4	4.9	nt	8	9	nt
Cc1nnc(SCCC(=O)Nc2ccc(Cl)cc2)o1	-61	9	4.7	nt	2	-1	-6

Structure	PrP UTR inh	ugtP null kill	RN4220 kill	Bead autofluor	Mtb hypoxia rep	Mtb hypoxia rep growth	BJeLR lethal
COc1ccc(C(CC(=O)N2CCN(c3ccccc3)CC2)c2c(OC)cc(OC)c3ccc(=O)oc23)cc1 (configuration not stated)	-10	9	2.9	2962	8	8	-5
CC1CCN(C(=O)C(NS(=O)(=O)c2cccc3nsnc23)c2ccccc2)CC1 (configuration not stated)	-3	13	14	3186	5	9	-7
COc1ccc(C(=O)c2cc3ccc(O)cc3oc2=O)cc1	-14	-7	-3.5	7836	1	4	9
Cc1csc(/N=C/N(C)C)c1C#N	-24	nt	nt	5839	nt	nt	-1
COc1cccc2c1OC(=NO)C(C(=O)Nc1ccc(C)cc1)C2 (configuration not stated)	nt	12	6.7	nt	4	5	nt
CCCC(=O)Nc1ccccc1Sc1ncnc2scc(-c3ccccc3)c12	-6	1	6.6	2240	8	-1	5
CCOC(=O)Cn1cc(Cl)c(=O)c(Cl)c1	-11	11	3.6	4356	16	9	-3
Cc1cc(N2CCN(Cc3nc(-c4ccc(Cl)cc4)oc3C)CC2)cc(C)n1	13	-7	-2.5	3626	12	5	-6
CSc1ccccc1C(=O)Nc1ccc2c(c1)OCO2	-4	1	2.3	4071	1	-1	-1
CC(=O)[C@@]1(O)CCC2C3CC=C4CC(O)CC[C@]4(C)C3CC[C@@]21C (some centres not stated)	nt	5	7.1	nt	6	10	nt
COC(=O)c1sccc1NC(=O)Nc1ccccc1OC	-26	6	1.8	4910	15	-12	2
O=C(COC(=O)c1n[nH]c2ccccc12)NC(=O)NC1CCCC1	0	-14	-12	2964	7	6	nt

Structure	PrP UTR inh	ugtP null kill	RN4220 kill	Bead autofluor	Mtb hypoxia rep	Mtb hypoxia rep growth	BJeLR lethal
COc1ccccc1NS(=O)(=O)c1ccc(O)c(C(=O)OCC(=O)N2c3ccccc3CC2C)c1 (configuration not stated)	-13	4	0.8	4368	2	-6	1
CC(=O)N1[C@H](C)C=C[C@]1(Cc1ccccc1)C(=O)NCc1cc(F)cc(C(F)(F)F)c1	-31	nt	nt	4009	nt	nt	0
O=C(NC1CCCCC1)C1CCN(C(=O)c2ccc(Cl)cc2)CC1	-24	0	-1.3	4990	18	14	0
CCOc1ncccc1C(=O)OCC(=O)c1ccc(F)cc1	-27	11	6.1	4394	11	7	-3
CCC(c1nnc(SCC(=O)Nc2ccc(C(=O)Nc3ccccc3OC)cc2)o1)N(C)C (configuration not stated)	-9	-2	2.6	2223	nt	nt	0
COc1cc(C=NNC(=O)C2CCN(CC(O)COCc3ccccc3)CC2)cc(OC)c1OC (configuration not stated)	nt	4	5.2	nt	-1	17	nt
O=S1(=O)C=C(SCc2cccc(Cl)c2)Nc2ccccc21	-20	-6	-0.3	2603	nt	nt	4
CCn1c(SCc2nc(-c3ccccc3)no2)nnc1-c1cccs1	-19	4	12	4159	-1	3	-2
O=C(NC1CCCCC1)c1cccc(COCC(F)(F)F)c1	-10	2	1.0	3987	5	11	-14
CN1CCN(S(=O)(=O)c2ccc(NC(=O)Cc3cccs3)cc2)CC1	-14	-1	-2.1	19616*	3	13	nt
Cc1cnc(C(=O)NCc2ccc(F)cc2)cn1	-26	7	-0.8	3645	18	28	-10
CC(C)OCCCNC(=O)c1cc2c(=O)n(C)c3ccccc3c2n1C	-11	7	-0.4	6064	nt	nt	-1

# An excerpt of these results, with values under each structure.
# Order of values: PrP UTR inh	ugtP null kill	RN4220 kill	Bead autofluor	Mtb hypoxia rep	Mtb hypoxia rep growth	BJeLR lethal
- CCC(c1nnc(SCC(=O)Nc2ccc(C(=O)Nc3ccccc3OC)cc2)o1)N(C)C (configuration not stated)
    -9	-2	2.6	2223	nt	nt	0
- O=C(NN=Cc1cc(Br)ccc1O)c1ccncc1
    nt	6	-7.3	nt	14	0	nt

# Remaining list, next part
Structure	PrP UTR inh	ugtP null kill	RN4220 kill	Bead autofluor	Mtb hypoxia rep	Mtb hypoxia rep growth	BJeLR lethal
CCCCOC(=O)c1ccc(NC(=O)CN2C(=O)NC3(CCCCCC3)C2=O)cc1	-10	0	-1.2	8463	6	3	nt
CN(C(=O)c1cccc(NC(=O)Cc2ccc(NC(=O)C3CCN(C(=O)C4CCCC4)CC3)cc2)c1)C1CC1	-16	-1	3.3	3598	-7	4	nt
COc1cccc(N2C(=O)N(c3ccccc3Cl)C3CS(=O)(=O)CC32)c1 (configuration not stated)	-8	-6	-2.2	9688	-12	5	3
O=C(COc1ccccc1-c1ccccc1)N/N=C/c1cccnc1	-13	nt	nt	4389	nt	nt	-5
COc1ccccc1N1CN(S(=O)(=O)c2ccc(C)cc2)c2nc3ccccc3nc21	-11	19	2.6	3409	13	8	nt
Cc1ccc(S(=O)(=O)Nc2ccccc2C=Nc2cccc(C)c2C)cc1	-13	14	28	2023	3	-2	-13
O=C(Nc1ccc(N2CCCCC2)cc1)c1ccc([N+](=O)[O-])o1	-49	44	-0.2	4308	nt	nt	1
COc1ccccc1CNC(=O)[C@H](C)NC(=O)C1CCN(C(=O)[C@@H](N)C(C)C)CC1	-4	0	-0.4	4124	nt	nt	3
O=C(C1CCCCC1)N1CCCc2ccccc21	-9	-3	3.5	2436	nt	nt	0
CCOc1ccc(CCNC(=O)c2cnc(C)cn2)cc1OCC	-5	6	0.1	5043	8	14	4
Cc1[nH]c2ccccc2c(=O)c1CN1CCCCC1	-16	-7	-3.0	5734	3	-1	3
O=C1C2CCCN2C(c2ccccc2)N1c1ccc(F)cc1 (configuration not stated)	-12	7	1.1	6023	nt	nt	-7

Structure	PrP UTR inh	ugtP null kill	RN4220 kill	Bead autofluor	Mtb hypoxia rep	Mtb hypoxia rep growth	BJeLR lethal
c1ccc2[nH]c(SCc3cn4ccccc4n3)nc2c1	-25	-3	2.8	2094	-8	12	0
O=C(c1ccc(Cn2c(=O)[nH]c3ccccc3c2=O)cc1)N1CCN(c2ccccn2)CC1	-21	-15	-0.1	5736	-9	4	1
C=CCN(c1ccccc1)S(=O)(=O)c1cccc(C(=O)NCC(c2ccccc2OC)N2CCCC2)c1 (configuration not stated)	-27	1	-7.3	8883	1	2	8
CS(=O)(=O)N(CC(=O)N1CCN(Cc2ccccc2)CC1)c1ccc2c(c1)OCCO2	-27	1	5.4	23268*	16	3	-6
COc1ccc(NC(=O)Cc2c[nH]c3ccccc23)cc1S(=O)(=O)N1CCOCC1	-7	4	10	4286	8	8	-2
Cc1cccc(NC(=S)NC(C)C(c2ccccc2)N2CCN(C)CC2)c1C (configuration not stated)	38	5	6.6	3271	19	28	0
CCCc1nc(NCC2CCCO2)c2nnn(Cc3ccccc3)c2n1 (configuration not stated)	-6	-2	-3.0	2803	1	12	-10
O=C(O)COc1ccc(NC(=O)c2ccc3c(c2)C(=O)N(C2CCCCC2)C3=O)cc1	1	nt	nt	5361	nt	nt	5
C=C(CCC(=O)c1ccccc1)C(=O)c1ccccc1	-22	35	18	2019	23	25	-1
CCN(CC)c1ccc(C=NN2CCOCC2)cc1	nt	-6	0.9	nt	2	5	nt
O=C(Nc1cnn(Cc2ccc(F)cc2)c1)c1cnccn1	-17	-6	-13	3151	16	6	3
COc1ccc(NC(=O)N(C2CCCCC2)C(C)c2cccnc2)c(OC)c1 (configuration not stated)	-4	-5	-16	3175	10	1	-8

Structure	PrP UTR inh	ugtP null kill	RN4220 kill	Bead autofluor	Mtb hypoxia rep	Mtb hypoxia rep growth	BJeLR lethal
NC(=O)CCNC(=O)c1ccc(Cl)cc1	-11	0	2.0	2796	nt	nt	-6
Cc1ccc(Oc2nc(CN3CCOCC3)nc3sc4c(c23)CCC(C)C4)cc1C (configuration not stated)	-2	-2	1.3	2243	19	8	-19
CC1CCCC(C)N1N=Cc1ccc(O)c(O)c1 (configuration not stated)	nt	-2	2.1	nt	12	5	nt
COc1ccc(C2=NN(C(=O)CCC(=O)O)C(c3cccs3)C2)cc1OC (configuration not stated)	-9	-2	0.5	3357	-9	12	-5
O=C(CCC(=O)N1CCSc2ccccc21)Nc1ccc(F)cc1	-28	-1	5.2	5728	3	0	8
COCCN(C(=S)Nc1c(C)cc(C)cc1C)C(C)c1cccnc1 (configuration not stated)	-4	8	4.0	2247	8	-1	-13
O=C(COC(=O)c1cccs1)NCC1CCCCC1	-32	1	4.2	2612	9	8	-7
O=C(CCNC(=O)c1ccc(Cl)cc1)NC1CCCCCC1	-22	21	13	4385	10	2	nt
Cc1ccc(S(=O)(=O)N2CCN(S(=O)(=O)c3ccc4c(c3)OCCO4)CC2)cc1	-24	0	3.5	2376	9	1	-7
Cc1ccc2nc(NC(=O)C3CCCN3C(=O)OC(C)(C)C)sc2c1 (configuration not stated)	-25	4	4.7	4144	-2	9	6
COC(=O)[C@@]12CCCN1C(c1ccc(SC3CCCCC3)cc1)C1C(=O)N(C)C(=O)C12 (some centres not stated)	nt	6	5.3	nt	8	11	nt
Cc1ccoc1C(=O)Nc1ccc2ccccc2c1	10	nt	nt	5408	nt	nt	-7
COc1cccc(/C=C2\SC(=O)N(CCC(=O)NC3CCS(=O)(=O)C3)C2=O)c1 (configuration not stated)	-23	3	4.3	5224	7	-4	9
O=C(C1=C[C@@H](c2ccc(Br)cc2)C[C@@H](OCCCCO)O1)N1CCN(Cc2ccc3c(c2)OCO3)CC1	-10	nt	nt	3589	nt	nt	6
N#CC/C(N)=N/Nc1nc2ccccc2nc1Cc1ccccc1	-5	-3	5.4	2387	9	2	-1
